# TRPML1 blocker: qHTS for Inhibitors of the Human Mucolipin Transient Receptor Potential 1 (TRPML1); Mucolipin-1 (Homo sapiens), Q9GZU1; TRPML1-inducible cells, Ca2+ dye fluorescence, FDSS; hits give low values; inhibition of EC80 agonist-evoked calcium signal; 390,000 compounds, 0.02% hits; activity change, negative = inhibition, % (test concentration not listed); in the data active means activity change below about -50%; inconclusive means about -30% to -50%; inactive means above about -30%;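 further: stimulus is agonist 54-4 at its EC80 concentration; on the % scale 0 is the no-effect control and ±100 the full control effect; compound concentration not given in the record; the text of the record puts the active cut at -80%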
# Target sequence (Q9GZU1 whole entry, looked up): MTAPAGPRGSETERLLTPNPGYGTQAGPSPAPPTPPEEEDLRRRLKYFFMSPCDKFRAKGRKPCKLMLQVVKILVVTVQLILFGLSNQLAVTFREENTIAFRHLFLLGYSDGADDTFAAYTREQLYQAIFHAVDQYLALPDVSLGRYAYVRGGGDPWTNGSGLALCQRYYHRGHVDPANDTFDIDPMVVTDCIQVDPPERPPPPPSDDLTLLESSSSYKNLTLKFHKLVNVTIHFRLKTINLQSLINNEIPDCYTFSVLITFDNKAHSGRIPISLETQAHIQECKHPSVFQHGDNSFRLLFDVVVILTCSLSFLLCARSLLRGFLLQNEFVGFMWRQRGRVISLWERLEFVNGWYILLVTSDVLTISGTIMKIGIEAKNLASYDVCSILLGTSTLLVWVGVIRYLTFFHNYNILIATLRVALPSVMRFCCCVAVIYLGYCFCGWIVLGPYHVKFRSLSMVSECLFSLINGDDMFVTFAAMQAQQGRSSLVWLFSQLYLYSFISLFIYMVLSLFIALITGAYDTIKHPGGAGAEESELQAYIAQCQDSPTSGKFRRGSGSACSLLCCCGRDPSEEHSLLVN
#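 Tet-induced TRPML1-DL cells loaded with Ca8 no-wash calcium dye were read kinetically on FDSS. Compound addition was followed by EC80 agonist 54-4 (4 uM final); inhibition was read over 110 s.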
# D2 ag: Beta-Arrestin HTS for Positive Allosteric Modulators of the Human D2 Dopamine Receptor: Agonists. D(2) dopamine receptor (Homo sapiens), P14416. DiscoveRx PathHunter D2 beta-arrestin, luminescence, 90 min; 100% = 57 uM dopamine signal. activation, % (test concentration not listed). 360,000 compounds, 0.084% hits. AID 624465, 2012; in the data active = activation above about 40%; inconclusive = about 15% to 40%; inactive = below about 15%; further: compound concentration not given in the record; the text of the record calls up to 30% inactive
# Target sequence (P14416 whole entry, looked up): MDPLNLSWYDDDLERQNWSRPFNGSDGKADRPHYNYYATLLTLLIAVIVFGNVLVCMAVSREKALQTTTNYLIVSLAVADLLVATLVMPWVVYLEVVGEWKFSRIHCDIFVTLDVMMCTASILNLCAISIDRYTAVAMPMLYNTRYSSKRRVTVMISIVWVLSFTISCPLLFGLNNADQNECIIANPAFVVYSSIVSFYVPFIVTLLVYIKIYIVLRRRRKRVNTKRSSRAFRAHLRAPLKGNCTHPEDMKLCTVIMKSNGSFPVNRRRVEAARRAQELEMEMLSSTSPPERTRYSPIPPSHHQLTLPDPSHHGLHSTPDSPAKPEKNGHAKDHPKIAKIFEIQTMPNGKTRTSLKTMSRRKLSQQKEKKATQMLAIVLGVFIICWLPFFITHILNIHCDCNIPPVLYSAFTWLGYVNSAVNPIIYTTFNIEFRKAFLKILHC
#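 Agonist mode: compounds alone added to overnight-plated D2 PathHunter cells for 90 min at 37 C, with 57 uM final dopamine (EC100) defining full response. Beta-arrestin recruitment detected by chemiluminescent reagent, read after 1 h at ambient temperature.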
# TRPML1 agonist: qHTS for Agonists of the Human Mucolipin Transient Receptor Potential 1 (TRPML1); AID 624414, 2012; 410,000 compounds, 0.12% hits; TRPML1-expressing cells, Ca2+ dye fluorescence, FDSS; host cell line not named in the record; reference of the full effect not given here; activation, % (test concentration not listed); Mucolipin-1 (Homo sapiens), Q9GZU1; in the data active = activation above about 50%; inconclusive = about 30% to 50%; inactive = below about 30%; further: 0% is about no effect; the text of the record puts the active cut at 80%
#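 TRPML1-DL cells, Tet-induced overnight (~16 h, 37 degrees C), loaded 45-90 min at room temperature with Ca8 no-wash calcium dye plus quencher. FDSS fluorescence: 10 s baseline, compound pin-transfer, 110 s agonist read, then EC80 54-4 (4uM final) and 110 s antagonist read.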
# CtBP-E1A inh: qHTS Assay for Inhibitors of the CtBP/E1A Interaction. AID 651724, 2012. 340,000 compounds, 0.49% hits. activity change, % (concentration not given with the values). AlphaScreen GST-E1A/His-CtBP binding, 1536-well; hits give low values; control for the full effect not named in the record; in the data active means activity change below about -65%; inconclusive means about -30% to -65%; inactive means above about -30%; further: on the % scale 0 is the no-effect control and ±100 the full control effect
#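 Protein mix (5X: 125 nM each GST-E1A, His-CtBP) was incubated with pinned compound 2 h at 37 deg C in dark, in 50 mM Tris pH 8.0 buffer with 300 mM NaCl. Glutathione donor and nickel acceptor beads followed; AlphaScreen signal read after 1 h.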
# Six1-Eya2 inh: qHTS Assay for Inhibitors of the Six1/Eya2 Interaction; Homeobox protein SIX1 (Homo sapiens) + Protein phosphatase EYA2 (Homo sapiens), …; AlphaScreen GST-Six1/His-Eya2 binding, biochemical; hits give low values; control for the full effect not named in the record; activity change, % (no concentration beside the values); 360,000 compounds, 0.56% hits; in the data active = activity change below about -65%; inconclusive = about -30% to -65%; inactive = above about -30%; further: on the % scale 0 is the no-effect control and ±100 the full control effect
#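 Homogeneous AlphaScreen proximity assay pairing GST-Six1 with His-tagged Eya2 (added as 5X mix: 250 nM and 500 nM) in 50 mM Tris pH 8.0, 300 mM NaCl, 1 mM TCEP. Glutathione donor and nickel acceptor beads; 1 h, 37 °C, dark.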
# PINK1 expr mod: A Quantitative High throughput Screen to Identify Chemical Modulators of PINK1 Expression | PINK1 immunofluorescence, high-content cytometry, 24 h | Potency, µM (titrated, usually from 76.6 µM), for the others: at the top dose activation (PINK1 increase), most hits filed as activators | 410,000 compounds, 0.2% hits | AID 624263, 2012; active = well fitted activation curve with a large enough effect; inconclusive = small, poorly fitted or top-dose-only effect; inactive = flat fitted curve, though single readings scatter; cell line not stated here;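 further: potency means the concentration at half of the fitted maximal effect; % of control where 0% means no effect; nearly all actives have a fitted effect of over 65% in size; a mitochondrial uncoupler was the plate control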
#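 A stable cell line was treated with compounds at 5 concentrations for 24 hours, with CCCP as control. PINK1 levels and mitochondrial localization were measured by immunofluorescence with mitochondrial, cell and nuclear markers after fixation, read by laser-scanning cytometry.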
# Starred values were filed as active, the others as inactive; ? = inconclusive; / = no result given; [ ] = dose if it differs, or a comment.
SMILES,TRPML1 blocker,D2 ag,TRPML1 agonist,CtBP-E1A inh,Six1-Eya2 inh,PINK1 expr mod
O=C(NC1CCCCC1)c1cc(S(=O)(=O)N2CCCC2)ccc1Cl,-4,0.0,-0.8,3,0,0.6%
CCOc1ccc(CCNC(=O)c2sc3ncccc3c2-n2cccc2)cc1OCC,13,/,2.6,/,/,0.1%
COc1cccc(C2c3c(oc4ccc(C)cc4c3=O)C(=O)N2CCCN2CCOCC2)c1OC (configuration not stated),8,/,0.7,/,/,1.3%
N#Cc1ccc(-c2nc3c4ccccc4ccn3c2Cc2cccc(Cl)c2)cc1,12,-6.2,0.4,0,0,11%
CC1(C)CC(n2c(=S)[nH]c3ccccc3c2=O)CCO1 (configuration not stated),-7,-5.9,-0.2,10,1,14%
Cc1ccc(C2=NS(=O)(=O)N(C)C(C(=O)NCc3cccs3)=C2)cc1,8,1.8,0.1,-4,-11,-0.2%
Cc1cccn2c(=O)c(/C=C(\C#N)S(=O)(=O)c3ccccc3)c(Oc3ccc(Cl)cc3)nc12,-23,-2.1,-0.3,1,-1,-3.7%
CC1(C)CC(=O)C2=C(C1)OC(/N=C/N1CCOCC1)=C(C#N)C2c1ccccc1 (configuration not stated),-2,-3.6,2.0,5,10,3.7%
COc1cc(/C=C(\C#N)C(=O)NCC2CCCO2)ccc1OCCC(C)C (configuration not stated),-19,3.9,52*,-24,17,5.7%
CCOC(=O)CSc1nnc(-c2cccc(Cl)c2)n1CC,23,-3.6,-0.2,4,1,0.0%
O=C1N[C@@H](Cc2ccccc2)C(=O)N2[C@H]3Nc4ccccc4[C@@]3([C@]34C[C@H]5C(=O)N[C@@H](Cc6ccccc6)C(=O)N5[C@H]3Nc3ccccc34)C[C@@H]12,-2,-1.8,-0.4,-18,-8,0.2%
COC(=O)Cc1[nH]nc2c1C(c1cccc(OC)c1OC)C(C#N)=C(N)O2 (configuration not stated),4,0.4,0.8,6,5,0.0%
O=C(Cc1cc(=O)[nH]c(=O)[nH]1)NCCN1CCOCC1,4,-5.1,0.2,0,6,1.3%
COC(=O)c1cnc(NC(=O)C2(C)CCCN(C(C)=O)C2)s1 (configuration not stated),-4,-4.3,0.0,2,-1,0.3%
CCN1CCN(C(c2ccccc2F)c2nnnn2Cc2ccc3c(c2)OCO3)CC1 (configuration not stated),-4,-2.2,1.6,1,2,-1.3%
COC(=O)C(=O)Nc1cccc2cccnc12,23,/,0.9,/,/,-1.0%
N=c1n(CCO)c2ccccc2n1CCOc1ccccc1,6,-1.0,-0.4,0,-3,-2.0%
COc1ccc(S(=O)(=O)N2CCCC2)cc1C(=O)O,/,-4.5,/,/,9,1.4%
Cn1c(SCC(=O)Nc2nccs2)nnc1-c1ccco1,2,-3.7,-0.9,-6,-9,0.8%
CC1CN(C(=O)CCC(=O)NCc2cccc(Cl)c2)c2ccccc2S1 (configuration not stated),3,/,3.2,/,/,-0.3%
Cc1ccccc1C(=O)Nc1ccc2nc(N3CCCCC3)cc(C)c2c1,5,/,1.0,/,/,0.4%
Cn1c(=O)[nH]c(N)c(Br)c1=O,0,0.0,0.2,4,1,-0.8%
CSCc1cc(N(C)C)nc(SCc2ccc(Cl)c(Cl)c2)n1,5,2.9,1.2,7,4,-4.0%[38.3 µM]
COC(=O)C(C)Sc1nc2c(c(=O)n(C)c(=O)n2C)n1Cc1cccc(C)c1 (configuration not stated),-16,-2.6,2.1,1,2,0.4%
CN(C)S(=O)(=O)c1ccc(C(=O)NNC(=O)c2ccccc2-n2cccc2)cc1,-5,-5.2,-0.9,/,2,-1.0%
O=C(Oc1ccc2c(c1)OCO2)C12CC3CC(CC(C3)C1)C2,4,-2.2,1.3,/,-2,18%
CCC(=O)N(C)C[C@@H]1Oc2cc(Br)ccc2S(=O)(=O)N([C@@H](C)CO)C[C@@H]1C,49,-0.8,-0.2,1,-12,-0.3%
Cc1ccc(C)c(C(=O)COC(=O)c2ccc(Br)o2)c1,55,-3.3,3.0,32,27,2.1%
COc1ccc2cc(S(=O)(=O)N3CCCC3)ccc2c1,-15,5.1,0.1,5,8,3.8%
Cc1ccc(CC(C(=O)O)C(C)C(=O)Nc2ccc(F)cc2)cc1 (configuration not stated),33,-1.8,0.9,-1,-3,-1.2%
Cc1cccn2c(=O)c(C=O)c(N3CC(C)OC(C)C3)nc12 (configuration not stated),9,5.8,-0.1,8,0,-0.1%
COc1ccc(CN2CCN(C(=O)Cn3c(=O)oc4cc(Cl)ccc43)CC2)c(OC)c1OC,13,-4.1,-0.1,/,6,5.0%
CCCCN1C(=O)C(O)(CC(=O)c2ccco2)c2cc(Br)ccc21 (configuration not stated),4,-2.1,0.0,10,1,0.8%
Cc1cc(/C=N/n2cnnc2)c(C)n1-c1cc(Cl)ccc1Cl,2,0.3,0.2,-2,-18,/
CC(Oc1ccc(Cl)cc1)C(=O)NNC(=S)NC(=O)c1ccco1 (configuration not stated),4,-8.9,14,-2,-24,-1.1%
Cc1ccc(-c2csc(N/N=C/c3ccco3)n2)c(C)c1,-2,12,-0.5,-4,-11,9.4%
COC(=O)C1CCN(C(=O)c2ccc(Cl)c(S(=O)(=O)NCc3cccnc3)c2)CC1,2,-2.5,-0.2,1,4,3.5%[38.3 µM]
CCOC(=O)C1CCN(S(=O)(=O)C(F)(F)c2nc3ccccc3s2)CC1,0,1.3,0.5,10,10,-2.1%[38.3 µM]
Cc1cc(NC(=O)Nc2cccc(Cl)c2)no1,9,-2.2,0.5,2,4,0.8%
CSc1nc(Cl)cc(Nc2ccccc2N)n1,-2,-6.4,0.4,-1,3,0.2%
Cc1ccc(NC(=O)Cn2c(=O)ccc3cc(S(=O)(=O)N4CCCC4)ccc32)cc1N(C)C,5,/,1.3,/,/,8.6%
CCOC(=O)CSc1nc(-c2ccc(F)cc2)cc(C(F)(F)F)c1C#N,20,/,1.2,/,/,-0.3%
C=C(C)CN=C1NN=C(c2cc(C)n(-c3ccc(C)cc3)c2C)CS1,-7,-3.5,-0.1,2,-4,2.3%
CCOC(=O)N1CCN(S(=O)(=O)N2CCCC(C(=O)NCCc3ccc(C)cc3)C2)CC1 (configuration not stated),-6,-0.2,-0.8,8,3,-0.8%
O=C(NCCC(=O)N1CCN(c2ccccn2)CC1)c1ccc(Br)cc1,-1,-3.5,1.3,7,-8,4.0%
O=C1Nc2c(c(=O)[nH]c(=O)n2-c2ccc(F)cc2)C1(NS(=O)(=O)c1ccc(Cl)cc1)C(F)(F)F (configuration not stated),3,/,-0.1,/,/,2.8%
COc1ccc2oc(=O)c(N3C(=O)c4ccccc4C3=O)cc2c1,32,-1.0,-0.5,-9,1,0.9%
O=[N+]([O-])c1ccccc1S(=O)(=O)N1CCN(CC2CC3C=CC2C3)CC1 (configuration not stated),-9,-0.5,0.3,-14,-17,0.6%
COc1ccc(OC)c(CNC(=O)C2CCCN(S(=O)(=O)N3CCC(C)CC3)C2)c1 (configuration not stated),-5,-1.6,1.4,/,-6,0.5%
NC(=O)c1ccc(-c2nnc(Nc3ccc(S(N)(=O)=O)cc3)c3ccccc23)cc1,11,-0.4,-0.9,-26,?,11%
O=C(COC(=O)c1ccc2c(c1)OCCO2)Nc1ccc(F)cc1F,6,-0.9,0.4,3,-2,1.5%
COc1cc(NC(=O)Cn2ncc3c([nH]c4ccc(C)cc43)c2=O)cc(OC)c1OC,6,/,1.6,/,/,4.4%
Cc1c(Cl)ccc2sc(N3CCN(C(=O)CCS(=O)(=O)c4ccc(F)cc4)CC3)nc12,-11,/,-0.7,/,/,-1.1%
C[C@H](CO)N1C[C@H](C)[C@@H](CN(C)C(=O)c2ccc3ccn(C)c3c2)OCc2cn(nn2)CCCC1=O,0,-3.1,-0.5,-3,2,1.7%
CC(=O)Nc1cc([N+](=O)[O-])ccc1N1CCOCC1,8,-5.0,-0.5,1,-3,0.1%
O=C(Nc1nnc(SCc2cccc(F)c2)s1)c1ccco1,-5,-0.7,-0.1,5,8,3.4%
O=c1[nH]c(CN2CCOCC2)nc2scc(-c3ccccc3)c12,5,1.4,0.0,1,1,0.2%
Nc1nnc(/C=C/c2ccccc2)s1,30,0.2,1.1,5,1,1.6%
COc1ccccc1CCC(=O)OCC(=O)Nc1ccc(C)c(S(=O)(=O)N2CCCCC2)c1,18,-7.7,2.6,-6,-15,1.6%
CCOc1ccccc1C(=O)NC(C(=O)OCn1nnc2ccccc2c1=O)C(C)C (configuration not stated),4,-2.5,1.1,6,7,0.3%

# Later entries
SMILES,TRPML1 blocker,D2 ag,TRPML1 agonist,CtBP-E1A inh,Six1-Eya2 inh,PINK1 expr mod
CCN(CCO)c1ncnc2c1sc1nc(CC(C)C)c3c(c12)CC(C)(C)OC3,17,0.9,0.9,-9,7,-0.8%
CN(C)c1ccc(Nc2ncnc3ccc(Br)cc23)cc1,9,-15,2.1,-19,?,4.8%
CC1(C(=O)NS(=O)(=O)c2ccc(F)cc2F)CCN1C(=O)C1(c2ccc(Cl)cc2)CCC1 (configuration not stated),/,5.9,-0.3,11,-1,-0.8%
COc1ccc(CNC(=O)c2cnn(-c3ccc(C)cc3)c2-n2cccc2)cc1OC,-2,/,1.8,/,/,0.1%
Cc1ccc(Cn2c(SCC(=O)NCc3ccc(Cl)cc3)nc3ccsc3c2=O)cc1,-3,/,1.9,/,/,?
Nn1c(SCc2ccccc2)nc2ccccc21,2,-1.7,-0.2,-11,14,5.1%
CCC1NC(=O)c2cc3ccccc3cc2-n2c1nc1cc(C)cc(C)c1c2=O (configuration not stated),21,2.0,0.3,-1,12,13%
Cc1noc(/C=C/N(C)C)c1S(=O)(=O)N1CCCC(C(=O)NCc2ccccc2Cl)C1 (configuration not stated),3,-0.3,0.2,-6,-4,0.2%[38.3 µM]

# Screens (PubChem)
